# High-throughput results as filed in PubChem.
# RN4220 kill – kills Staphylococcus aureus RN4220 | S. aureus RN4220 growth, OD600, 16 h | AID 1259311 | 330,000 compounds, 0.33% hits | inhibition, % (no concentration beside the values);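 active = z-score of -3 or lower and OD600 up to 0.18 on both plates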;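 note: plate controls were untreated cells for no effect and reference antibiotic for full effect; stock transfer was 100 nL into about 80 µL; one replicate is shown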
# BJeLR viability – kills HRASV12-expressing BJeLR cells. 300,000 compounds, 0.17% hits. inhibition, % (no concentration beside the values). BJeLR (HRASV12) viability, CellTiter-Glo ATP luminescence, 48 h; reference of the scale not given here;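 active = replicate mean above 50%; inconclusive = above 50% but judged a plate artefact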;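 note: 50 nL library stock added to about 25 µL; numbers are from one replicate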
# Sa ugtP lethal – compounds lethal to S. aureus RN4220 ugtP deletion mutant. OD600 growth, 16 h; some inactives read as strong as hits. growth inhibition, % (no concentration beside the values). 330,000 compounds, 0.54% hits. AID 1259309;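 active = z-score under -3 and OD600 up to 0.15 on both plates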;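 note: plate controls were untreated wells for no effect and antibiotic for full effect; wells of about 80 µL received 100 nL stock; the first replicate is given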
# Mtb hypoxia inh – inhibitors of hypoxia-regulated fluorescent reporter in Mycobacterium tuberculosis. M. tuberculosis hypoxia-regulated fluorescent reporter, fluorescence. fluorescence inhibition, % (no concentration beside the values). 300,000 compounds, 0.1% hits. AID 1159583;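 active = 35 to 45% if threefold the growth effect, above 45% if 1.5-fold the growth effect; inactive = the rest, general growth blockers included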;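 note: wells of about 50 µL received 100 nL stock; 0% = vehicle wells and 100% = reference inhibitor wells; whole bacteria with a GFP reporter of the hypoxia response; strong numbers were not always called active; many hits fall short of the cut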
# Bead autofluor – counter-screen for toxin protease inhibitors: compound fluorescence; compound autofluorescence counterscreen, microsphere flow cytometry; hits give high values; fluorescence intensity (no concentration beside the values); 360,000 compounds, 3.1% hits; AID 624483;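 active = at least 3 SD above the mean of all compounds, about 16000 in these data; inconclusive = too few beads counted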;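 note: 100 nL of 1 mM stock went into each well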
# PrP 5UTR inh – suppresses PrP 5' UTR mRNA reporter expression; cell-based PrP 5' UTR mRNA reporter, plate reader; inhibition, % (no concentration beside the values); 340,000 compounds, 0.35% hits; AID 488862;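 active = every replicate at 50% or more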;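 note: 0 = median of the neutral control wells; tested in H4 reporter cells; numbers are from one replicate; inactives centre near -14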
# Mtb hypoxia inh growth – recorded beside Mtb hypoxia inh, whose call it bears; growth inhibition, %; measured here: M. tuberculosis growth (absorbance);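 0% = vehicle and 100% = reference antibiotic; read after six days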
# Starred values were filed as active, the others as inactive; ? = inconclusive; nt = no result given. Outcome played no part in choosing rows, and some 3.9% of all compounds hit somewhere here.
SMILES,RN4220 kill,BJeLR viability,Sa ugtP lethal,Mtb hypoxia inh,Mtb hypoxia inh growth,Bead autofluor,PrP 5UTR inh
Oc1ccc2c(c1)oc1cc(O)ccc12,4.2,6,-17,10,2,10648,-33
Cc1ccc(C(=O)N2CCC(C(=O)c3c(C)cc(C)cc3C)CC2)cc1,7.6,-1,2,1,2,3833,-7
C/C(=C\C(=O)c1ccc(Br)cc1)NNC(=O)c1ccc(O)cc1,-0.5,0,8,-6,3,3415,-4
CCC(=O)NNC(=O)Cc1c(C)n(C(=O)c2ccc(Cl)cc2)c2ccc(OC)cc12,1.4,1,9,2,5,3659,-23
CN(C)c1ncnc2c1ncn2C1CCCO1 (stereo not given),2.4,nt,4,19,10,4027,-37
COc1ccccc1NC(=O)c1cc(Br)ccc1Cl,3.4,4,8,10,12,4805,-26
COc1ccccc1C(=O)NCc1ccco1,3.5,-4,2,20,7,4247,-33
CCCCN(CCCC)Cc1ccc(C(=O)NNC(=O)Nc2ccc(F)cc2)o1,3.6,22,4,9,-1,5996,0
Cc1ccc(NC(=O)c2cccc(S(=O)(=O)N(C)c3ccccc3)c2)cc1S(=O)(=O)N1CCOCC1,1.5,10,6,-2,-6,2140,1
CN(CC(=O)Nc1ccccc1Br)C(=O)CNC(=O)c1ccc2c(c1)OCO2,4.3,-2,8,14,0,?,-30
NS(=O)(=O)c1ccc(Sc2ccc3ccccc3c2)nc1,2.7,-3,19,14,0,2937,-2
Cc1ccc(C(=O)Nc2ccccc2C(=O)N2CCCCC2C)cc1 (stereo not given),3.7,-4,9,1,5,?,-12
COc1ccc(-c2csc(N(CCCN(C)C)C(=O)c3ccccc3C)n2)cc1,-0.8,-1,2,6,22,3740,-10
CC(Oc1ccccc1)C(=O)Nc1nnc(S(=O)(=O)N(C)c2ccccc2)s1 (stereo not given),8.5,7,7,12,12,4587,-13
Cc1cc(NC(=O)C2CCCN(S(=O)(=O)c3c(C)noc3C)C2)n[nH]1 (stereo not given),-7.8,8,4,8,8,5952,-48
COc1cc(-c2cc(C(=O)O)c3cc4c(cc3n2)OCCO4)cc(OC)c1OC,2.6,-16,3,0,9,5234,-15
Clc1ccc2c(c1)[C@H]1OCC[C@H]1[C@@H](c1ccco1)N2,5.1,3,0,nt,nt,5189,-36
O=C(Nc1cccc(C(F)(F)F)c1)C1C2CC3OC(=O)C1C3C2 (stereo not given),-0.1,-8,6,nt,nt,4945,11
CCn1cc(SCC(=O)N2CCOCC2)c2ccccc21,-9.1,-1,-4,5,12,4305,-19
COc1cccc(CN2CCN(C(=O)c3cccc4ccccc34)CC2)c1OC,5.3,3,1,5,8,8591,-9
CS(=O)(=O)NN1C(=O)c2ccccc2NC1c1ccccc1O (stereo not given),7.3,6,-5,10,12,4652,-11
CCN1CCN(CC(=O)NC2CCCCC2)C(=O)C1=O,5.3,8,-11,7,2,4180,-21
CCOC(=O)C1=C(N)n2c(s/c(=C\c3ccco3)c2=O)=C(C(=O)OC(C)C)C1c1ccco1 (stereo not given),nt,-3,nt,nt,nt,3350,-4
O=C(COc1ccc(-n2ccnc2)cc1)Nc1cccc(Cl)c1,9.7,-16,2,1,0,4571,-22
CCOc1ccc(C(=O)NCc2ccco2)cc1,-1.8,11,2,3,1,7672,-10
COc1cccc(CNC(=O)c2cc(COc3c(F)cccc3F)on2)c1,nt,4,nt,nt,nt,3271,-5
N#Cc1nc(Cc2ccccc2)oc1N1CCCC1,0.1,3,3,11,7,4134,-21
CC(=O)c1cc(C#N)c(SCc2ccccc2)nc1C,14,-6,-21,3,5,2484,-27
COc1ccc(CNS(=O)(=O)c2ccc(-n3cnnn3)c(OC)c2)cc1,3.6,1,2,3,7,3686,-16
O=C(CN1CCN(S(=O)(=O)N2CCCCCC2)CC1)Nc1cc(Cl)ccc1Cl,3.2,0,-1,7,-2,3602,-11
CCCCOC(=O)c1ccc(NC(=NS(=O)(=O)c2ccccc2)c2ccccc2)cc1,24,nt,-5,5,-4,nt,nt
CC1(C(=O)O)C=CCN1C(=O)c1ccccc1 (stereo not given),-0.5,1,-6,-3,9,3420,-8
C[C@H](NC(=O)N1CCn2c1nc1ccccc12)C(=O)NCc1ccco1,4.2,5,2,10,2,5108,-9
O=C(Nc1nncs1)C1CCCC1,1.1,-4,3,4,15,4383,-5
CCOCCCNC(=O)Cn1nc(-c2ccccc2)ccc1=O,5.4,-10,14,4,0,5565,-20
CCOc1ccc(CCNC(=O)C2=C(C)C(=O)OC23CCC(C)CC3)cc1OCC (stereo not given),nt,-3,nt,nt,nt,2023,7
CC(C(=O)O)n1cc(Cl)cn1 (stereo not given),3.3,4,6,19,1,4632,2
CC(=O)N1[C@H](Cc2ccccc2)C=C[C@]1(C)C(=O)NCCc1c[nH]c2ccccc12,nt,-4,nt,nt,nt,2855,-22
O=S(=O)(c1ccc(N2CCCC2)nc1)N1CCCC1,6.2,0,6,6,3,4194,-11
O=C(OCC(=O)N1N=C(c2ccc(Cl)cc2)CC1c1ccco1)c1ccccc1O (stereo not given),-2.4,4,-45,nt,nt,2842,-6
CCN1C(=O)[C@H]2[C@H]3CN=C(SC)N3[C@@](Cc3ccccc3)(C(=O)OC)[C@H]2C1=O,3.6,nt,6,-2,3,3057,-9
CCNC(=O)NC(=O)C(C)OC(=O)c1oc2ccc(OC)cc2c1C (stereo not given),2.8,nt,1,2,3,21371*,-6
Cc1nc2ccccc2c(=O)n1-c1cccc(C(F)(F)F)c1,1.5,-18,2,17,2,4076,-20
COc1ccc(OC)c(/C=C/C(=O)OCC(=O)N2CCN(S(=O)(=O)c3ccc(C)cc3C)CC2)c1,2.5,nt,4,-1,2,5512,9
COc1ccc(C(=O)CSc2nnc(C3CC3)n2N)cc1,9.8,-6,0,7,8,22665*,-24
O=C(NCc1ccco1)c1cc(-c2ccccc2)on1,5.0,2,5,18,9,10490,-78
CCOC(=O)C1CCCN(CC(=O)Nc2c(C(=O)OC)[nH]c3ccc(Cl)cc23)C1 (stereo not given),2.2,8,-28,-7,5,3148,-15
CCOc1ccc(CNC(=O)c2ccco2)cc1,-0.7,-2,8,22,22,4370,-15
CCC(=Nc1ccc(OC)cc1OC)c1c(O)[nH]c(=O)[nH]c1=O,5.2,-10,2,nt,nt,nt,-5
Cc1ccc(C2C(=O)N(C3CCC(C)CC3)CC(=O)N2C2CCCC2)cc1 (stereo not given),2.2,1,2,2,4,23411*,-21
O=C(CSc1ccc(Br)cc1)NC1CCS(=O)(=O)C1 (stereo not given),0.8,-9,7,1,0,4026,-12
Cc1ccc(C=Nn2c(C)nc3ccccc3c2=O)o1,0.7,nt,9,5,4,nt,nt
Cc1cccc(NS(=O)(=O)c2cccc(C(=O)N3CCN(c4ccccn4)CC3)c2)c1,-2.6,-4,-6,-8,6,5702,1
Cc1noc(NS(=O)(=O)c2ccc(NC(=O)C(C)(C)C)cc2)c1C,5.9,-1,7,14,7,3101,-10
CC(=O)Nc1ccc(-c2csc(NC=C3C(=O)OC(C)(C)OC3=O)n2)cc1,nt,17,nt,nt,nt,4634,-56
COc1ccc(C2CC(=O)C=C(c3cccc(C#N)c3)C2)cc1 (stereo not given),6.7,nt,-8,3,7,nt,nt
O=C(CNC(=O)c1ccc(-c2ccccc2)cc1)OCc1c(F)cccc1Cl,-3.0,1,5,4,1,2657,-15
O=C(O)COc1ccccc1C=NNC(=O)CNC(=O)c1ccco1,1.3,nt,3,-4,-8,nt,nt
O=C(CSc1nnc(CNC(=O)c2ccc(F)cc2)o1)Nc1ccc2c(c1)OCCO2,-1.1,8,1,-1,4,6032,-20
CCCOc1ccc(NC(=O)C(=O)NCCCn2ccnc2)cc1,2.1,5,2,nt,nt,2015,2

# The list continues:
SMILES,RN4220 kill,BJeLR viability,Sa ugtP lethal,Mtb hypoxia inh,Mtb hypoxia inh growth,Bead autofluor,PrP 5UTR inh
CC(=O)NC(=S)Nc1ccccc1N1CCCCC1,2.3,8,28,-1,4,2166,-3
COc1ccc(C)cc1NC(=O)CN(C)S(=O)(=O)c1ccc2c(c1)CCCN2C(C)=O,3.8,11,7,0,1,4658,-17
Cn1ncc2c(NCCO)nc(Cl)nc21,4.2,nt,6,0,7,3394,-15
COc1cc2nc(CN3CCN(C(c4ccccc4)c4ccccc4)CC3)[nH]c(=O)c2cc1OC,2.5,-9,6,4,7,nt,nt
Cc1ccc(-c2n[nH]c(=S)n2C)cc1,-3.5,4,-2,7,5,2730,-4
O=C(CC(NC(=O)c1ccccc1Cl)c1ccccc1)Nc1ccc2c(c1)OCO2 (stereo not given),1.7,nt,1,6,5,20052*,-10
Cc1ccc(-c2ccc(/C=N\NC(=O)C3C(=O)NCC3c3ccccc3)o2)cc1Cl (stereo not given),nt,-2,nt,nt,nt,4449,2
Cc1ccc(O)c(-c2cc(-c3cccc(Br)c3)n[nH]2)c1,87*,-8,85,-4,-4,5573,-59
Cc1ccccc1NC(=O)COc1coc(CN2CCN(c3ccccc3)CC2)cc1=O,2.5,0,6,15,5,4694,-8
Cc1cc(C(=O)OCn2nnc3ccccc3c2=O)c(C)n1-c1ccccc1,-0.2,-3,65,nt,nt,4993,-21

# Filtered by structure, the compounds so far containing a furan ring, fused or not.
SMILES,RN4220 kill,BJeLR viability,Sa ugtP lethal,Mtb hypoxia inh,Mtb hypoxia inh growth,Bead autofluor,PrP 5UTR inh
Oc1ccc2c(c1)oc1cc(O)ccc12,4.2,6,-17,10,2,10648,-33
COc1ccccc1C(=O)NCc1ccco1,3.5,-4,2,20,7,4247,-33
CCCCN(CCCC)Cc1ccc(C(=O)NNC(=O)Nc2ccc(F)cc2)o1,3.6,22,4,9,-1,5996,0
Clc1ccc2c(c1)[C@H]1OCC[C@H]1[C@@H](c1ccco1)N2,5.1,3,0,nt,nt,5189,-36
CCOC(=O)C1=C(N)n2c(s/c(=C\c3ccco3)c2=O)=C(C(=O)OC(C)C)C1c1ccco1 (stereo not given),nt,-3,nt,nt,nt,3350,-4
CCOc1ccc(C(=O)NCc2ccco2)cc1,-1.8,11,2,3,1,7672,-10
C[C@H](NC(=O)N1CCn2c1nc1ccccc12)C(=O)NCc1ccco1,4.2,5,2,10,2,5108,-9
O=C(OCC(=O)N1N=C(c2ccc(Cl)cc2)CC1c1ccco1)c1ccccc1O (stereo not given),-2.4,4,-45,nt,nt,2842,-6
CCNC(=O)NC(=O)C(C)OC(=O)c1oc2ccc(OC)cc2c1C (stereo not given),2.8,nt,1,2,3,21371*,-6
O=C(NCc1ccco1)c1cc(-c2ccccc2)on1,5.0,2,5,18,9,10490,-78
CCOc1ccc(CNC(=O)c2ccco2)cc1,-0.7,-2,8,22,22,4370,-15
Cc1ccc(C=Nn2c(C)nc3ccccc3c2=O)o1,0.7,nt,9,5,4,nt,nt
O=C(O)COc1ccccc1C=NNC(=O)CNC(=O)c1ccco1,1.3,nt,3,-4,-8,nt,nt
Cc1ccc(-c2ccc(/C=N\NC(=O)C3C(=O)NCC3c3ccccc3)o2)cc1Cl (stereo not given),nt,-2,nt,nt,nt,4449,2
